Vif TR-FRET = inhibitors of Vif binding to APOBEC3G peptide, primary screen, biochemical, TR-FRET, GST-Vif 1-94, biotin-A3G peptide, dose response retest (AID 1117319); TR-FRET GST-Vif / biotin-A3G peptide binding; higher % means a stronger effect; test concentration not given here; strong numbers were not always called active; Virion infectivity factor (Human immunodeficiency virus type 1 group M subtype B (isolate …; inhibition, %; hits with a dose series show IC50 in µM; 260,000 compounds, 0.57% hits;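 active = above the screen mean plus three standard deviations and confirmed in dose response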;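 note: Vif residues 1-94 fused to GST binding biotinylated APOBEC3G peptide 110-148; 0% = full assay without inhibitor and 100% = GST in place of GST-Vif; retest series ran down from 100 µM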
HNF4A DNA FP = change in binding of human HNF4A to DNA, primary screen, biochemical, fluorescence polarization, FITC-DNA | Hepatocyte nuclear factor 4-alpha (Homo sapiens), P41235 | 1 h | activity change, % at 10 µM | 360,000 compounds, 0.3% hits | AID 1224865, 2016; in the data active = activity change above about 30%, passing the limit was not always enough;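 note: controls were the assay level and a saturating level of protein; the project sought stronger binding though the title names inhibitors; some compounds called inactive have numbers as strong as hits; positive values seem to mean higher polarization but the record does not say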
Target sequence (P41235 whole entry, looked up): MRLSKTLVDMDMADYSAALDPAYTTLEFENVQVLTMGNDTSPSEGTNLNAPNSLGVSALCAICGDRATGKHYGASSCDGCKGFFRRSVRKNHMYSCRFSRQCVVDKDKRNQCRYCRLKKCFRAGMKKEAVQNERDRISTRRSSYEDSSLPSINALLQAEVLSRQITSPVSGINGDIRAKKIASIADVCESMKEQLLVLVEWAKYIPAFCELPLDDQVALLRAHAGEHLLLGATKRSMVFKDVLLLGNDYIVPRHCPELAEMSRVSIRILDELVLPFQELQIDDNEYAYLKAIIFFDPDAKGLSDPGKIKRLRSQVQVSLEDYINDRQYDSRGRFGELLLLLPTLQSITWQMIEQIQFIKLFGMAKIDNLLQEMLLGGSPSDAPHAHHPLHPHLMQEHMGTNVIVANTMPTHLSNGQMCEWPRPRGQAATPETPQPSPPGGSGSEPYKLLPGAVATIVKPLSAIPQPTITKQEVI
* marks the source's active call; other numbers are inactive results.

SMILES	Vif TR-FRET	HNF4A DNA FP
C[C@@H]1CN([C@@H](C)CO)C(=O)CCCn2cc(nn2)CO[C@H]1CN(C)S(=O)(=O)c1ccccc1F	-7%	-3.9
CCN1C(=O)[C@H]2[C@@H](c3ccc(C)cc3)N[C@]3(CCCN(CC4CCCCC4)C3=O)[C@H]2C1=O	3%	-0.7
CCN1C(=O)[C@H]2[C@@H](c3ccc(OC)cc3)N[C@]3(CCCN(Cc4ccc(Cl)cc4)C3=O)[C@H]2C1=O	-8%	-1.2
Cc1ccc(NC(=O)CSc2nnnn2C)cc1S(=O)(=O)N1CCCCC1	4%	0.2
O=C(Nc1ccc(NC(=S)NC(=O)c2ccco2)cc1)c1ccc(Br)cc1	-5%	-1.6
O=C(COC(=O)Cc1ccccc1F)NCc1ccccc1Cl	7%	4.2
COc1ccc(C2CC(=O)Nc3cc(OC)c(OC)cc32)cc1 (stereo not given)	-2%	1.3
COc1ccccc1CN1CC(C(=O)N(C)CCc2ccccn2)CCC1=O (stereo not given)	-4%	1.0
O=C(COC(=O)Cc1c[nH]c2ccccc12)Nc1ccc(Cl)cc1	0%	1.1
CC(=O)c1ccccc1C(=O)N1CCC(CCC(=O)NCc2ccc(F)cc2)CC1	1%	-5.0
CCCCCCn1c(=O)n2n(c1=O)C[C@]1(OC(=O)NCc3ccccc3)CN(S(=O)(=O)c3ccc(C)cc3)C[C@]1(O)C2	-4%	1.0
O=C(OCc1cn([C@@H]2C[C@H](c3ccccc3)N(C(=O)C3CCCCC3)C[C@H]2O)nn1)c1ccccc1	-2%	-7.2
COc1cc(C=C(C#N)c2ccc([N+](=O)[O-])cc2)ccc1O	2%	12
NC(=O)CCC(C(=O)O)N1C(=O)C2C3CCC(C3)C2C1=O (stereo not given)	5%	-2.1
CNC(=O)C[C@H]1C(=O)N(c2ccc(OC)cc2)C[C@@H]1C	-4%	-1.9
COc1ncnc2c1ncn2CCCNCc1ccccn1	3%	1.4
NS(=O)(=O)c1ccc(CCNC(=O)CSc2nc3ccsc3c(=O)n2Cc2ccccn2)cc1	-6%	-1.1
O=C(NCCO)C(=O)NCC(c1cccs1)S(=O)(=O)c1ccc(F)cc1 (stereo not given)	7%	-0.2
Cc1cc(=O)c2c(=O)[nH][nH]c2[nH]1	-5%	-1.6
CC1=C(C(=O)N2CCOCC2)CC(CC(=O)NCC2CCCCC2)C(=O)N1Cc1ccc(F)cc1 (stereo not given)	1%	-3.0
CN(CCCn1ccc(NC(=O)OCc2ccccc2)nc1=O)CCc1ccccn1	10%	1.7
COc1ccccc1NC(=O)CN(Cc1ccco1)C(=O)c1cc(Cl)c(OC)c(OC)c1	1%	0.4
CCCCN(C)CCCNC(=O)Cn1cc2c(n1)-c1c(oc(C(=O)N3CCCC3)c1C)CC2	-7%	-4.9
CCOC(=O)CCCCCC(=O)Nc1ccc2c(c1)C(=O)N([C@@H](C)CO)C[C@H](C)[C@H](CN(C)C(=O)c1ccccc1)OCCCC[C@H](C)O2	-3%	-1.1
CCCCCCn1c(=O)n2n(c1=O)[C@@H]1CN(S(=O)(=O)c3ccc(C)cc3)C[C@]1(O)[C@@H](OC(=O)NCc1ccco1)C2	-8%	-0.6
Nc1nc(-c2ccccc2)c(CC(=O)O)s1	6%	6.7
COCC(=O)N(C)C[C@@H]1Oc2cc(-c3ccc(F)cc3)ccc2S(=O)(=O)N([C@H](C)CO)C[C@H]1C	9%	1.4
Cc1onc(-c2ccccc2)c1-c1nnc(COC(=O)c2ccc(F)cc2)o1	-2%	-4.5
C(=Nn1cnnc1)c1ccc2c(c1)CCC2	-8%	-2.0
CC(C)CC1C(=O)N(Cc2cn(Cc3ccco3)nn2)CCS(=O)(=O)N1Cc1ccc(-c2ccc(F)nc2)cc1 (stereo not given)	-3%	4.9
O=S(=O)(c1ccc(SCc2c(F)cccc2Cl)nc1)N1CCCC1	-4%	0.6
O=C(C[C@H]1C(=O)N(C2CCCCC2)C[C@@H]1c1ccccc1)Nc1ccc(Br)cc1	2%	0.0
CCCN(C(=O)CSc1nnc(-c2ccc3c(c2)OCO3)o1)C1CCS(=O)(=O)C1 (stereo not given)	-7%	2.9
Cc1cccc(-c2nc(NCCN(C)C)c3ccccc3n2)c1	-6%	0.2
CC(C)COC(=O)N(C)C[C@H]1OCc2cnnn2CCCC(=O)N([C@H](C)CO)C[C@@H]1C	-2%	-2.7
Cc1cccc(NC(=O)c2nc[nH]c2C(=O)NC[C@H](C)O)c1	-8%	-2.0
Cc1cccc(CCNC(=O)C2CC(O)CN2C(=O)Nc2ccccc2)c1 (stereo not given)	0%	-3.2
CN(CC(=O)Nc1ccc(Cl)cc1)CC(=O)N1CCc2ccccc21	4%	1.9
Cc1ccc([C@H]2C[C@@H](O)[C@H](n3cc(C4CC4)nn3)CN2C(=O)c2cccs2)cc1	-10%	3.1
COCC#Cc1cnc2c(c1)C(=O)N([C@H](C)CO)C[C@H](C)[C@@H](CN(C)S(=O)(=O)c1ccccc1)O2	1%	1.8
COc1cc2ccc(C(C)=O)c(O)c2cc1OC	-1%	1.8
Cc1c(NS(=O)(=O)c2cc(C(=O)OCC(=O)c3ccccc3F)ccc2Cl)c(=O)n(-c2ccccc2)n1C	3%	1.2
CN1OC[C@@H]2CN[C@H](c3cccc(N4CCOCC4)c3)C[C@@H]21	4%	-0.5
Cc1cc(Nc2ccccc2C(=O)O)n2ncnc2n1	-1%	-0.8
CC1(C)C(=Cc2ccccc2)C(=O)c2ccccc21	-8%	1.4
COc1ccc([C@H]2C[C@H](O)[C@@H](n3cc(C4CC4)nn3)CN2C(=O)C2CCCCC2)cc1	-4%	-1.0
C[C@@H]1CN([C@@H](C)CO)C(=O)c2cc(Br)cnc2O[C@H]1CN(C)C(=O)NC1CCCC1	-3%	2.8
COc1ccccc1CC1CC(=O)N(c2ccc([N+](=O)[O-])cc2)C1=O (stereo not given)	0%	-2.4
C[C@H](O)[C@@H]1C(=O)N2CCc3c([nH]c4ccccc34)[C@@H]2C[C@@H]1N(C)Cc1ccc2c(c1)OCO2	11%	-4.6
O=C1c2sccc2-c2cccc3cccc1c23	3%	-50

Among those listed so far, 5 have a furan ring, fused or not:
SMILES	Vif TR-FRET	HNF4A DNA FP
O=C(Nc1ccc(NC(=S)NC(=O)c2ccco2)cc1)c1ccc(Br)cc1	-5%	-1.6
COc1ccccc1NC(=O)CN(Cc1ccco1)C(=O)c1cc(Cl)c(OC)c(OC)c1	1%	0.4
CCCCN(C)CCCNC(=O)Cn1cc2c(n1)-c1c(oc(C(=O)N3CCCC3)c1C)CC2	-7%	-4.9
CCCCCCn1c(=O)n2n(c1=O)[C@@H]1CN(S(=O)(=O)c3ccc(C)cc3)C[C@]1(O)[C@@H](OC(=O)NCc1ccco1)C2	-8%	-0.6
CC(C)CC1C(=O)N(Cc2cn(Cc3ccco3)nn2)CCS(=O)(=O)N1Cc1ccc(-c2ccc(F)nc2)cc1 (stereo not given)	-3%	4.9

(more compounds)
canonical_smiles	Vif TR-FRET	HNF4A DNA FP
Nc1ccc2cc3[nH]c4cc(N)ccc4c3nc2c1	30%	-108
COc1cccc(CNC[C@H]2O[C@@H](n3ccc(N)nc3=O)[C@H](O)[C@@H]2O)c1OCc1ccc(F)cc1Cl	10%	2.0
O=C(COC(=O)c1cccnc1Cl)Nc1ccc(N2CCOCC2)cc1	-7%	-1.1
N#Cc1ccc(NC(=O)COC(=O)C2CCC2)cc1	-1%	-2.3
CN(CCN1CCOCC1)C(=O)C1CCC(=O)N(Cc2ccc(Cl)cc2)C1 (stereo not given)	1%	-1.5
Cc1ccsc1C(=O)NCC(c1cccs1)N1CCOCC1 (stereo not given)	6%	1.3
O=C(COC(=O)c1cc(S(=O)(=O)N2CCOCC2)ccc1Cl)NC1CCCCC1	0%	-2.7
C[C@H]1CN([C@@H](C)CO)S(=O)(=O)c2ccc(Br)cc2O[C@H]1CN(C)Cc1ccccc1	1%	-1.8
CCCCCC(=O)N1C[C@H](n2cc(C3CC3)nn2)[C@@H](O)C[C@@H]1c1ccc(Cl)cc1	-2%	0.9
Cc1ccc(NC(=C(C#N)C#N)c2ccccc2)cc1	-8%	-2.8
O=C(COC(=O)/C=C/c1ccc(Cl)cc1Cl)Nc1cccc(S(=O)(=O)NC2=NCCC2)c1	-1%	0.3
CCN1C(=O)[C@H]2[C@@H](c3ccc(OC)cc3)N[C@]3(CCCN(CC4CCCCC4)C3=O)[C@H]2C1=O	1%	-1.2
N#Cc1ccccc1C[C@H](N)C(=O)NC[C@H]1O[C@@H](n2ccc(N)nc2=O)[C@H](O)[C@@H]1O	11%	-0.4
CC(C)(CNC(=O)c1cccc(S(=O)(=O)N2CCCCC2)c1)N1CCOCC1	4%	1.5
COc1ccc(NC(=O)O[C@@H](C)[C@@H]2CN3CCc4c([nH]c5ccc(-c6ccc(OC)cc6)cc45)[C@@H]3C[C@@H]2N(C)C(=O)Nc2ccc(OC)cc2)cc1	2%	-0.1
Cc1cn([C@H]2C[C@H](O)[C@@H](CNCc3ccc(F)c(N4CCOCC4)c3)O2)c(=O)[nH]c1=O	0%	-3.4
NC(CSC1(c2ccc(F)cc2)c2ccccc2-c2ccccc21)C(=O)O (stereo not given)	16%	-2.6
Cc1c(-c2ccc(OCCN3CCCCC3)cc2)c(=O)oc2ccc3ccccc3c12	3%	3.2
C[C@@H]1CN([C@H](C)CO)C(=O)CCCn2nncc2CO[C@H]1CN(C)Cc1ccccc1	9%	-0.1
COc1ccc([C@H]2C[C@@H](n3cc(COC(=O)c4ccccc4)nn3)[C@H](O)CN2Cc2cccs2)cc1	-1%	-7.0
C#CCN(C[C@@H]1[C@@H](OC(=O)NCCCCCC)[C@@H](OC(=O)NCCCCCC)Cn2c(=O)n(CCCCCC)c(=O)n21)S(=O)(=O)c1ccc(C)cc1	5%	3.3
CCCc1c(C(=O)N/N=C/c2ccc(OCc3ccccc3)cc2)nnn1-c1nonc1N	8%	3.7
COc1ccccc1NC(=O)N(C)C[C@@H]1OCc2cn(nn2)CCCC(=O)N([C@@H](C)CO)C[C@H]1C	0%	2.6
Nc1ncnc(N)c1NC(=O)c1cc(Cl)c(OCc2ccccc2)c(Cl)c1	2%	3.8
c1ccc2c(c1)nc(N1CCCCCC1)c1nncn12	-4%	0.6
Cc1cc(C)nc(NS(=O)(=O)c2ccc(NC(=O)c3ccccc3Br)cc2)n1	6%	-1.1
CC(C)C1C(=O)N(Cc2cn(CC3CCCCC3)nn2)CCS(=O)(=O)N1Cc1ccc(-c2ccc(F)nc2)cc1 (stereo not given)	-3%	-0.1
CSC[C@H]1CN(CCc2ccccc2)C(=O)[C@@H]1CC(=O)Nc1ccc(Br)cc1	4%	-0.5
C[C@H]1C(=O)N(C)CCN1C(=O)c1ccc(OC2CCN(CCc3ccccc3)CC2)cc1	-7%	1.8
CCCCCC(=O)N1C[C@H](n2cc(C3CC3)nn2)[C@@H](O)C[C@@H]1c1ccccc1	0%	-7.9
C[C@H]1CN([C@@H](C)CO)C(=O)CCCn2nncc2CO[C@H]1CN(C)S(=O)(=O)c1ccccc1	-10%	3.5
COc1ccccc1NC(=O)N(C)C[C@@H]1OCc2cnnn2CCCC(=O)N([C@@H](C)CO)C[C@H]1C	2%	-2.6
Cc1ccc([C@H]2C[C@@H](O)[C@H](n3cc(COC(=O)c4ccccc4)nn3)CN2Cc2cccs2)cc1	-3%	-1.2
COc1cc2c(cc1OC)C(CNC(=O)C=Cc1ccccc1)C2 (stereo not given)	6%	2.5
COc1ccc(/C=C2/SC(=O)N(CCNC(=O)C3CC(=O)N(Cc4ccccc4)C3)C2=O)cc1 (stereo not given)	1%	-4.8
Cc1onc(-c2ccccc2)c1NC(=O)OC(C)c1cccnc1 (stereo not given)	-4%	-1.0

3 of the entries above in order of the Vif TR-FRET value, highest first:
SMILES	Vif TR-FRET
Cc1c(NS(=O)(=O)c2cc(C(=O)OCC(=O)c3ccccc3F)ccc2Cl)c(=O)n(-c2ccccc2)n1C	3%
Cc1cc(Nc2ccccc2C(=O)O)n2ncnc2n1	-1%
C[C@@H]1CN([C@@H](C)CO)C(=O)CCCn2cc(nn2)CO[C@H]1CN(C)S(=O)(=O)c1ccccc1F	-7%

Other entries.
canonical_smiles	Vif TR-FRET	HNF4A DNA FP
O=C(N=Nc1c(O)[nH]c2ccc(Br)cc12)c1ccco1	11%	-3.3
Cc1ccc(S(=O)(=O)N(C)c2ccc(C(=O)NCC(c3ccco3)N3CCCC3)cc2)cc1 (stereo not given)	-10%	1.3
CCCCCCn1c(=O)n2n(c1=O)C[C@]1(OC(=O)NCc3ccc(OC)c(OC)c3)CN(S(=O)(=O)c3ccc(C)cc3)C[C@]1(O)C2	-2%	-1.2
CCN(CC)C(=O)C1=C(C)N(Cc2ccccc2)C(=O)C(CC(=O)NCCCN(C)C)C1 (stereo not given)	-5%	-0.8
COCCNC(=S)N1CCC(C(=O)c2ccc(Cl)cc2)CC1	-8%	0.3
C[C@H](CO)N1C[C@H](C)[C@@H](CN(C)C(=O)Nc2ccc(F)cc2)Oc2ncc(-c3ccc(F)cc3)cc2C1=O	5%	2.4
COCCNC(=O)c1cc(S(=O)(=O)N2CCC3(CC2)OCCO3)ccc1F	2%	0.5
O=C(COC(=O)Cc1ccc(Cl)cc1)NCc1ccc(Cl)cc1	7%	1.1
Cc1ccc(CNC(=O)CSc2nnc(CNC(=O)c3ccc(F)cc3)o2)cc1	5%	5.8
COc1ccc(S(=O)(=O)N2CCCCCC2)cc1NC(=O)CCNC(=O)c1ccc(Cl)cc1	-7%	2.7
C[C@H](CO)N1C[C@H](C)[C@@H](CN(C)S(=O)(=O)c2cccc(F)c2)OCc2cn(nn2)CCCC1=O	0%	-8.6
O=C(c1ccc(Br)cc1)N1CCN(c2ccccn2)CC1	-2%	5.1

A portion of the library; the hit share may differ from the screen's.
